Source: PubChem BioAssay (National Center for Advancing Translational Sciences (NCATS))
StopGo RLuc – lowers the Renilla signal of an FMDV 2A StopGo reporter; HEK cells with a luciferase reporter of 2A StopGo recoding; Potency, µM (highest dose often 57.5 µM), for inactives: at the top dose signal change, negative = less light; 0.32% of 120,000 active; active means well fitted falling curve with a large enough effect; inconclusive means small, poorly fitted or top-dose-only effect; inactive means no such curve, though single readings can be large or run the other way; note: nearly all actives have a fitted effect of over 55% in size; overnight with compound
StopGo FLuc – lowers the firefly signal of an FMDV 2A StopGo reporter | Potency, µM (titrated, usually from 57.5 µM), for inactives: top-dose signal change, negative = less light | 0.23% of 120,000 active | AID 1745856 | HEK cells with a luciferase reporter of 2A StopGo recoding; active = well fitted falling curve with a large enough effect; inconclusive = small, poorly fitted or top-dose-only effect; inactive = no such curve, though single readings can be large or run the other way; note: nearly all actives have a fitted effect of over 60% in size; overnight with compound
* marks the source's active call; other numbers are inactive results; u = inconclusive; & = joins results of further samples; [ ] = another dose, or the depositor's remark. % is set by controls: 0 for no effect and ±100 for the full control effect; potency is the fitted concentration of half-maximal effect.

SMILES,StopGo RLuc,StopGo FLuc
COc1ccc(C(=O)CSc2nnc(-c3cc4cc(Cl)ccc4o3)n2C)cc1,-5%,-6%
Cc1ccc(-c2nc(-c3cc4cccc(OCc5ccccc5F)c4oc3=O)no2)cc1,-4%,-7%
Cc1ccc(-c2csc(-c3nc(-c4ccc(C)cc4)c(C)s3)n2)cc1,-2%,-6%
O=C(c1cc2ccccc2oc1=O)N1CCN(c2cccc(C(F)(F)F)c2)CC1,-9%,185%[activator]
CCCN1CCN(CCCN)CC1,1%,8%
O=Cc1ccc(OCc2cccc(Br)c2)cc1,1%,0%
COc1ccccc1N1CCN(S(=O)(=O)c2c(C)sc3ncn(CC(=O)N(C)c4ccc(Cl)cc4)c(=O)c23)CC1,-5%,-11%
COc1ccc(C(=O)OCCN2CCN(C3CN(Cc4cn(Cc5ccccc5C(F)(F)F)nn4)S(=O)(=O)C3)CC2)cc1OC (stereo not given),u,u
COc1ccc(-c2c(C)c3ccc(OS(C)(=O)=O)cc3oc2=O)cc1,16µM*,u
COc1ccc(CNC(=O)COCc2cc(-c3cccs3)on2)cc1,-1%,-18%

More structures
SMILES,StopGo RLuc,StopGo FLuc
Fc1cc(Br)ccc1CBr,-7%,-11%[11.5 µM]
CCOc1ccccc1NC(=O)c1c(NC(=O)c2ccccc2)sc2c1CCCC2,305%[activator],-9%
NCCCCCC(N)(C(=O)O)c1ccccc1 (stereo not given),1%[1.06 µM],2%
COCCNC(=O)NC(=O)CN(C)Cc1cccs1,1%,17%
COc1cc2ccccc2cc1C(=O)N1CCN(c2nc3ccc(F)cc3s2)CC1,-16%,-15%
COc1ccc(CCn2c(N3CCN(Cc4ccccc4)CC3)nc3c2c(=O)[nH]c(=O)n3C)cc1,-1%,6%
Cn1nnnc1SCC(=O)N1N=C(c2cc3ccccc3o2)CC1c1ccco1 (stereo not given),8%,151%[activator]
Cc1ccc(-c2ccc(O)cc2)cc1,-1%,109%[activator]
COc1cccc2cc(-c3csc(Nc4ccc(C)cc4)n3)c(=O)oc12,-1%,0%
CCCNC(=O)CNC(=O)c1ccc(NC(=O)C2CC2)s1,5%,-5%

Continued:
SMILES,StopGo RLuc,StopGo FLuc
Cc1c(C(=O)Nc2ccc(F)cc2F)nnn1-c1ccccc1Br,u,75%[activator]
Cc1ccc2c(=O)cc(C(=O)N(Cc3ccc(Cl)cc3)Cc3ccco3)oc2c1,34%[activator],-22%
COC(=O)[C@@H](NC(=O)c1cnc(C)cn1)C(C)C,11%,0%
O=C(O)[C@@H]1CCCC[C@@H]1C(=O)N1CCOCC1,3%,2%
COc1ccc(-c2nc(C#N)c(NCCc3ccccc3)o2)cc1,29%,156%[activator]
CN1[C@@H]2CC(OC(=O)[C@H](CO)c3ccccc3)C[C@H]1[C@@H]1O[C@@H]12 (stereo not given in full),0%,-6%[11.5 µM]
O=C(CC1NCCNC1=O)Nc1ccccc1F (stereo not given),3%,2%
Cc1ccc(C)c(CS(=O)Cc2cccc(C(F)(F)F)c2)c1 (stereo not given),3%,-4%
Cc1ccc2nc(Cl)c(C3CC(c4ccco4)=NN3S(C)(=O)=O)cc2c1 (stereo not given),54%[activator],0%
Cc1ccccc1-n1ccnc1SCC(=O)c1ccc(F)c(F)c1,0%,57%[activator]

In another format: results already given.
Every second line gives: StopGo RLuc, StopGo FLuc
> O=C(CC1NCCNC1=O)Nc1ccccc1F (stereo not given)
  3%, 2%
> Cc1ccc(C)c(CS(=O)Cc2cccc(C(F)(F)F)c2)c1 (stereo not given)
  3%, -4%
> Cc1ccc2nc(Cl)c(C3CC(c4ccco4)=NN3S(C)(=O)=O)cc2c1 (stereo not given)
  54%[activator], 0%
> Cc1ccccc1-n1ccnc1SCC(=O)c1ccc(F)c(F)c1
  0%, 57%[activator]

(further entries)
SMILES,StopGo RLuc,StopGo FLuc
O=C(CCC1CCCC1)N(Cc1ccncc1)C1CC1,23%,9%
Cc1oc(-c2cccs2)nc1C(=O)NCC(C)(C)N1CCOCC1,-5%,6%
CCCN1Cc2cccc(C(=O)Nc3ccc(C(C)=O)cc3)c2C1=O,-9%,7%
Cc1ccc(C(c2sc3nc(-c4ccco4)nn3c2O)N2CCN(c3ccc(F)cc3)CC2)cc1 (stereo not given),-17%,-8%
COC(=O)CNC(=O)Cn1ccc2cc(Cl)ccc21,-2%,7%
O=C(Nc1ccccc1C(F)(F)F)C12CC3CC(CC(Cl)(C3)C1)C2,17%,2%
Cc1ccnc(-n2c(SCC(=O)N3CCCC3=O)nc3ccccc3c2=O)c1,2%,75%[activator]
CC(C)(C)NC(NC(=O)c1cccc(Cl)c1)C(Cl)(Cl)Cl (stereo not given),1%,22%
COc1ccc2cc(CNC(=O)c3nn(C)c(=O)c4ccccc34)ccc2c1,-7%,6%
COC(=O)CCNC(=O)N1CCc2[nH]cnc2C1c1ccc(OC)cc1F (stereo not given),12%,1%

Four of these compounds, reformatted:
SMILES: Cc1ccnc(-n2c(SCC(=O)N3CCCC3=O)nc3ccccc3c2=O)c1
  StopGo RLuc = 2%
  StopGo FLuc = 75%[activator]
SMILES: CC(C)(C)NC(NC(=O)c1cccc(Cl)c1)C(Cl)(Cl)Cl (stereo not given)
  StopGo RLuc = 1%
  StopGo FLuc = 22%
SMILES: COc1ccc2cc(CNC(=O)c3nn(C)c(=O)c4ccccc34)ccc2c1
  StopGo RLuc = -7%
  StopGo FLuc = 6%
SMILES: COC(=O)CCNC(=O)N1CCc2[nH]cnc2C1c1ccc(OC)cc1F (stereo not given)
  StopGo RLuc = 12%
  StopGo FLuc = 1%

The list goes on.
SMILES,StopGo RLuc,StopGo FLuc
N#Cc1ccc(-c2ccc(OCc3ccccc3C#N)cc2)cc1,16%,26%
COc1cc2c(cc1OC)-c1c(c(C(=O)Nc3cccnc3)nn1-c1ccc(Cl)cc1)C2,16%,16%
Cc1c(S(=O)(=O)c2ccc(F)cc2)c(N)n(Cc2cccnc2)c1C,3%,13%
COc1ccc(CNC(=O)CN(c2ccccc2)S(=O)(=O)N(C)C)cc1,3%&-2%,-9%&-19%
O=C(Nc1ccc(OC(F)(F)F)cc1)c1cc(=O)c2ccccc2o1,-14%,34%[activator]
CC(=O)N1c2c(cc(Br)cc2S(=O)(=O)NCc2ccccc2Cl)CC1C (stereo not given),177%[activator],-4%
O=C(CSC1=Nc2ccccc2C2=NC(CCC(=O)NC3CCCCC3)C(=O)N12)Nc1cccc(Cl)c1 (stereo not given),17%,-6%
Cc1ccc2c(c1)cc(C(=O)NCCc1ccccc1)n2C,51%[activator],331%[activator]
CC(NC(=O)c1ccc(-c2ccco2)cc1)c1ccccc1 (stereo not given),25%,36%[activator]
CN1CCN(c2ncc3c(n2)CCN(Cc2ccccc2Cl)C3)CC1,-16%,-18%

Remaining list, next part:
SMILES,StopGo RLuc,StopGo FLuc
CCc1ccc(NC(=O)Cn2cnc3nc4c(cc3c2=O)CCCC4)cc1,-7%,-9%
O=C(Nc1nnc(-c2ccccc2)o1)C1CCN(S(=O)(=O)c2cccc(C(F)(F)F)c2)CC1,-3%,117%[activator]
Cc1cc(C(=O)O)n[nH]1,1%,2%
COc1ccc(CCNC(=O)Cn2cc(S(=O)(=O)Cc3ccccc3Cl)c3ccccc32)cc1OC,-3%,10%
CCOC(=O)N1CCc2c(sc(NCc3ccc(N(C)C)cc3)c2C(=O)Nc2ccc(OC)cc2)C1,16%,-10%
COC(=O)COc1coc(CN2CCN(c3ccccc3)CC2)cc1=O,-11%,-7%
O=C(NC1CC1)c1ccc(Cn2c(SCc3ccc(F)cc3)nc3cccnc32)cc1,3%,76%[activator]
CCCNC(=O)Cc1c(C)nc2nc(N)nn2c1C,-4%,6%
Cc1ccc(CNC(=O)C(CC(C)C)N2Cc3ccccc3C2=O)cc1 (stereo not given),68%[activator],-8%
Cc1ccc(-n2c(=O)c3c4c(sc3n(Cc3ccccc3C)c2=O)CCC4)cc1C,-11%,-14%

The listing continues:
SMILES,StopGo RLuc,StopGo FLuc
CCc1ccc(OC(=O)c2ccc(C)cc2)cc1,-10%,24%
Cc1ccc(Cl)cc1N1CCN(CCCNC(=O)C2COc3ccccc3C2)CC1 (stereo not given),-9%,21%
CCOC(=O)c1ccc(CN(Cc2ccc(F)cc2)S(=O)(=O)c2ccc(F)cc2)cc1,-5%,-12%
Cc1ccc2oc3c(c(=O)c2c1)C(c1ccc(O)cc1)N(CCCN(C)C)C3=O (stereo not given),-11%,7%
CCCSCCCNC(=O)c1cc2n(n1)CCCN(Cc1ccc(C)cc1)C2=O,-10%,-25%
COCc1nnc(NC(=O)Cn2ccc3cc(OC)ccc32)s1,29%,0%
CCC(=O)Oc1ccc2c(=O)c(-c3ccc(OC)c(OC)c3)c(C(F)(F)F)oc2c1,2%,15%
COc1cccc(NC(=O)CSc2nc3ccsc3c(=O)[nH]2)c1,-2%,39%[activator]
Cc1ccc(OCC(=O)Nc2ccc3[nH]ncc3c2)cc1C,-9%,24%
CC(NC(=S)NC(C)C1CC2CCC1C2)c1ccccc1 (stereo not given),45%[activator],-5%

The list goes on:
SMILES,StopGo RLuc,StopGo FLuc
CCc1ccc(-c2nc(SCc3ncc(-c4ccccc4)o3)n[nH]2)cc1,20%,21%
Cc1cccc2nc(-c3ccco3)c(Nc3ccc4c(c3)OCO4)n12,-4%,-2%
O=C(O)CCCC[C@@H]1SC[C@@H]2NC(=O)N[C@@H]21,-16%,-24%
Cc1cc(C)cc(NC(=O)Cn2nnc(C(=O)NCc3ccccc3Cl)c2N)c1,8%,3%
Cc1oc(-c2ccccc2)nc1C(=O)NCCN1CCOCC1,22%,54%[activator]
COc1ccc(NC(=O)CSc2c3c(nc4ccccc24)CCC3)cc1Cl,34%[activator],0%
Cc1ccc(CN2C(=O)CC(c3ccc(Cl)cc3)c3c(C)nn(-c4nc(C)cc(C)n4)c32)cc1 (stereo not given),25%,-20%
CCOC(=O)c1ccc(CN(Cc2ccccc2)S(=O)(=O)c2ccc(Cl)cc2)cc1,-5%,-11%
CCOC(=O)c1[nH]c2ccccc2c1NC(=O)c1cc(OC)cc(OC)c1,16%,-2%
O=C(NC1CCS(=O)(=O)C1)c1n[nH]c(=O)c2ccccc12 (stereo not given),-15%,2%

New compounds follow
SMILES,StopGo RLuc,StopGo FLuc
CNC(=O)NC(=O)CN(C)C1CCCCCC1,41%[activator],67%[activator]
O=S(=O)(NCC(c1ccco1)S(=O)(=O)c1cccs1)c1ccccc1 (stereo not given),299%[activator],-14%
Cc1ccc(N(C(C)C(=O)NCc2ccccc2)S(C)(=O)=O)cc1C (stereo not given),21%,6%
COc1ccc(-n2c(=O)c3c4c(sc3n(Cc3ccc(F)cc3)c2=O)CN(C(C)=O)CC4)c(OC)c1,4%,15%
CCCOc1ccc(C2c3c(-c4ccccc4O)n[nH]c3C(=O)N2Cc2ccncc2)cc1OCC (stereo not given),0%,-11%
C[N+](C)(C)CC[N+]1(C)Cc2c(Cl)c(Cl)c(Cl)c(Cl)c2C1,-2%,-6%[11.5 µM]
Cc1ccc2cccc(NC(=O)c3ccc(-c4cc(Cl)ccc4Cl)o3)c2n1,-14%,-12%
O=C(OCC(=O)N1CCc2ccccc21)c1ccc(Cl)c([N+](=O)[O-])c1,-3%,10%
Cc1ccc(-c2cnc(C3CC3)o2)cc1S(=O)(=O)Nc1cccc(C#N)c1,324%[activator],u
CCOc1ccc(CNC(=O)c2cc3n(n2)CC(C)(C(=O)NC2CCCC2)N(CC)C3=O)cc1 (stereo not given),-2%,0%

The results go on.
SMILES,StopGo RLuc,StopGo FLuc
Cc1cc(NC(=O)CN2C(=O)CSc3ccc(S(=O)(=O)N(C)C)cc32)ccc1Br,7%,-23%
CCCCCCCCN1CCS(=O)(=O)N(Cc2ccc(C)cc2)C(C(=O)OC)C1 (stereo not given),12%,2%
COc1ccc(Cn2c(=O)c3sccc3n(CC(=O)NCc3ccccc3)c2=O)cc1,16%,0%
O=C(CNc1ccc(F)cc1)N1CCN(S(=O)(=O)c2ccc3ccccc3c2)CC1,-1%,3%
CCCC(=O)n1nc(NCc2ccc(OCC)cc2)nc1NCc1ccc(OCC)cc1,18%,-1%
O=S(=O)(NCC(c1ccco1)S(=O)(=O)c1ccccc1)c1cc(F)ccc1F (stereo not given),339%[activator],-4%
O=S1(=O)OC(c2ccc(O)cc2)(c2ccc(O)cc2)c2ccccc21,-22%,1%[11.5 µM]
Cc1cc(C)cc(C(=O)NCCc2sc(-c3ccc(F)cc3)nc2C)c1,9%,1%
O=C(/C=C/c1cccc([N+](=O)[O-])c1)OCCCC(=O)c1ccc(F)cc1,-12%[1.06 µM],0%
COc1ccc(CNC(=O)c2ccc3c(c2)N(Cc2cccc(Cl)c2)C(=O)c2ccccc2S3)c(OC)c1,-13%,-14%

(more compounds)
SMILES,StopGo RLuc,StopGo FLuc
CCCCn1nnnc1CSc1nnc(-c2cccc(C)c2)n1-c1ccccc1,13%,5%
CCOc1ccc(S(=O)(=O)NCCO)cc1,29%,24%
Cc1cc(NC(=O)c2ccco2)cc(-c2nc3cc(C(C)C)ccc3o2)c1O,7%,56%[activator]
O=C(O)C(c1c[nH]c2ccccc12)N1CCN(Cc2cccs2)CC1 (stereo not given),-6%,-8%
COc1ccc(S(=O)(=O)N2CCN(Cc3nc4cc(C(=O)N5CCCCC5)ccc4o3)CC2)cc1,25%,5%
O=S(=O)(Nc1cccc2cccnc12)c1cccc(F)c1,u,u
CCCN1C(=O)C(Cc2nc3ccccc3c(=O)n2CC)c2ccccc21 (stereo not given),10%,0%
C/C(=N\Nc1ccc([N+](=O)[O-])cc1)c1ccc(Br)cc1,5%,66%
